AID504770: growth inhibitors of E. coli YBA685 in a screen for V. cholerae RctB (chromosome II replication) inhibitors | E. coli YBA685 rctB-dependent plasmid, OD600 growth, 3 h; active compounds read low | z-score (no concentration beside the values) | actives 0.27% (n = 130,000) | AID 504770;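 active = z-score under -2 on both plates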;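 note: wells of about 30 µL received 100 nL stock; score is relative to mean and SD of the test wells; the first replicate is given; strong numbers were not always called active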
Ba CapD inh: CapD enzyme inhibition; AID 492967; z-score (no concentration beside the values); actives 0.23% (n = 140,000); purified CapD enzyme, fluorescence intensity read-out; active compounds read low; some hits fall short of the stated cut;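 active = z-score under -4 in either of two replicates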;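 note: stock transfer was 100 nL into about 40 µL; score is relative to mean and spread of the plate; one replicate is shown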
The depositor's hits bear a star; . = not tested or not shown; & = joins results of further samples.

Compound,Ba CapD inh,AID504770
O=C(CCS(=O)(=O)c1cccc2nonc12)N1CCCCC1,0.69,.
CCCOc1ccc(C(=O)N(CC(N)=O)C(C)C)cc1,.,-0.2
CCCc1nc2cc(Cl)c(Cl)cc2nc1C,0.67,.
O=C1NCCCCC1NS(=O)(=O)c1ccccc1 (stereo not given),0.395,-0.55
O=c1c2oc3ccccc3c2[nH]c(=S)n1Cc1cccs1,1.35,0.45
COC(=O)c1sc(S(=O)(=O)NCc2ccccc2)c(C(=O)OC)c1C,-0.03,-0.65
C#CC(CC)(CC)NC(=O)CCc1nc2sc3c(c2c(=O)[nH]1)CCCC3,.,0.55
CC1CCC(C(=O)NC(Cc2ccccc2)C(=O)NCc2ccccn2)CC1 (stereo not given),-0.23,0.7
Cc1cc(C)c2c(N)c(C(=O)NCC3CCCCC3)sc2n1,6.54,0.4
CNCCCc1cc(C)ccc1O,.,-0.15
CCOc1ccc(N2C(=O)CC(SCc3nc4ccccc4[nH]3)C2=O)cc1 (stereo not given),0.055,1.5
C/C(=N\NC(=O)Cc1csc(C)n1)c1ccc(C)cc1,.,1.2

Other compounds follow:
Compound,Ba CapD inh,AID504770
CC(C)c1cc(NC2CCCCC2)n2c(nc3ccccc32)c1C#N,10.1,-1.2
Fc1cc2c(c(Cn3c4ccccc4c4nc5cc(F)ccc5nc43)c1)OCOC2,-0.85,.
COc1cccc(C2SCc3cc(C)c(C)cc3CS2)c1O,0.44,.
COc1ccc(NC(=O)c2sc(=S)n(-c3ccccc3)c2N)c(OC)c1,-0.035,.
Cc1ccc(NCc2cc(=O)[nH]c3ccccc23)cc1,.,1.35
COc1ccc(-c2cc(-c3nnc(CSc4nnc(-c5ccncc5)n4C)o3)c3ccccc3n2)cc1OC,.,-0.6
O=C(Nc1c(C(=O)N2CCOCC2)oc2ccccc12)c1cccs1,-3.58*,2.15
O=C(c1ccc(F)cc1)C1CCN(C(=O)OCCc2ccc(Br)cc2)CC1,1.04,.
NC(=O)Cn1cnc2c(cnn2CCO)c1=O,.,0
CN(C)/C=C(\C#N)C(=O)CSc1ncc(C(F)(F)F)cc1Cl,-0.79,.
O=C(Cn1cc2c(n1)CCCC2)Nc1cccc(C(F)(F)F)c1,-0.125,0.2
O=C(CNc1ccc(C(F)(F)F)cc1)N1CCc2ccccc21,.,-0.25

Some of the entries above, set out differently:
Cc1ccc(NCc2cc(=O)[nH]c3ccccc23)cc1
  Ba CapD inh: .
  AID504770: 1.35
NC(=O)Cn1cnc2c(cnn2CCO)c1=O
  Ba CapD inh: .
  AID504770: 0

An excerpt of these results, as labelled records:
O=C(c1ccc(F)cc1)C1CCN(C(=O)OCCc2ccc(Br)cc2)CC1
- Ba CapD inh = 1.04
- AID504770 = .
CN(C)/C=C(\C#N)C(=O)CSc1ncc(C(F)(F)F)cc1Cl
- Ba CapD inh = -0.79
- AID504770 = .
CCOc1ccc(N2C(=O)CC(SCc3nc4ccccc4[nH]3)C2=O)cc1 (stereo not given)
- Ba CapD inh = 0.055
- AID504770 = 1.5

Following part
Compound,Ba CapD inh,AID504770
O=C(c1ccccc1F)N1N=C(C(F)(F)F)CC1(O)c1ccccc1 (stereo not given),-0.39,.
CCOC(=O)c1ccccc1NC(=O)N1CCC(CN2CCCC2)CC1,41.2,-0.4
O=c1[nH]n(-c2ncnc3sc4c(c23)CCCC4)c(=O)c2ccccc12,.,0.7
Cc1cccc(-n2c(CSc3nc4ccccc4[nH]3)nc3ccccc3c2=O)c1C,0.19,0.1
Cc1ccc(C2CC(=O)C(c3ccccc3)=C(Nc3ccccc3)S2)cc1 (stereo not given),-0.225,.
O=C1NC2c3ccccc3C(=O)N2c2ccccc21 (stereo not given),.,-0.85
Cc1cc(C)cc(OC(=O)CN2C(=O)c3ccccc3C2=O)c1,.,-0.4
Cc1nc(SCC(=O)NN2C(=O)NC3(CCCCC3)C2=O)c2ccccc2n1,.,0.15
O=C(OCCCN1C(=O)c2cccc3c(N4CCOCC4)ccc(c23)C1=O)c1cccc([N+](=O)[O-])c1,-0.37,.
c1ccc(-c2nc(CSc3nnc4n3CCCCC4)cs2)cc1,.,0.25
COc1ccc([Se]c2cc(O)c3c(c2N)C(=O)c2ccccc2C3=O)cc1,-0.32,.
O=S(=O)(c1cc(Cl)sc1Cl)N1CCN(c2ccc(F)cc2)CC1,0.42,.

Next results follow:
Compound,Ba CapD inh,AID504770
CCc1ccc(C(=O)C23CN4CN(CN(C4)C2)C3)cc1,0.16,-0.25
O=C(CSc1nnnn1C1CC2C=CC1C2)Nc1cccc(C(=O)O)c1 (stereo not given),.,0
COc1cc(-c2cc(C(F)(F)F)n3ncc(C(=O)Nc4cc(C)ccc4O)c3n2)cc(OC)c1OC,-1.19,.
CCCN1CCC(N(C(=O)Nc2ccccc2C(=O)N(C)C)C2CC2)CC1,-0.205,.
COc1ccc(C2C(C(=O)O)c3ccccc3C(=O)N2C)cc1 (stereo not given),-0.075,-0.5
Cc1cccc(OCCCn2ccnc2)c1,0.59,0.75
CCc1ccc2cc(CNC3CCCCC3)c(=O)[nH]c2c1,.,0.65
CC(C)C(NC(=O)Cc1c[nH]c2ccccc12)C(=O)NC1CCN(Cc2ccc(N(C)C)c3ccccc23)C1 (stereo not given),40.6,.
COc1cccc(/C=N/NC(=O)C2CCCN(C(=S)NNC3CC4C=CC3C4)CC2)c1O (stereo not given),2.41,1.6
NC(=O)C1CCCN(Cc2ccc3ccccc3c2)C1 (stereo not given),0.29,-1.2
Cc1cc2c(cc1C)C(c1ccc(F)c(F)c1)CC(=O)N2 (stereo not given),-0.105,.
O=C(Cn1cnc2ccccc21)OCC(=O)N1CCCC1,.,0.1

Reformatted: results already given.
Fields: Ba CapD inh | AID504770
> COc1cc(-c2cc(C(F)(F)F)n3ncc(C(=O)Nc4cc(C)ccc4O)c3n2)cc(OC)c1OC
  -1.19 | .
> CCCN1CCC(N(C(=O)Nc2ccccc2C(=O)N(C)C)C2CC2)CC1
  -0.205 | .

Going on with the list:
Compound,Ba CapD inh,AID504770
CCCCC(=O)Nc1cccc(NC(=O)c2cc3ccccc3o2)c1,7.34,0.75
O=C(CN1C(=O)c2ccccc2C1=O)N(Cc1ccccc1)Cc1ccccc1,-0.145,0
O=c1oc(-c2ccccc2)nc2ccccc12,-0.385,2.05
Cc1ccc(I)c(C(N)=O)c1,0.705,-0.7
COC(=O)CSc1nc2ccccc2n1CCc1ccccc1,-0.345,-0.85
O=C1OC2CC1(O)CC(O)C2O (stereo not given),.,-0.65
CCC(Sc1nc(N)cc(=O)[nH]1)C(=O)Nc1ccccc1C#N (stereo not given),.,0.05
O=C(c1ccncc1)N1N=C(c2ccc(F)cc2)CC1(O)C(F)(F)F (stereo not given),-0.84,.
COc1ccc2c(c1)-c1c(ssc1=S)C(C)(C)N2C(=O)C(C)N1C(=O)c2ccccc2C1=O (stereo not given),-0.205,.
Nc1ncnc2nc(SCCN3CCCCC3)[nH]c12,0.13,.
CN1CCN(C(=O)c2ccccc2NC(=O)c2ccc(F)cc2)CC1,0.52,-0.35
COc1ccc(CN2CCN(Cc3cccc4ccccc34)CC2)cc1,0.05,0.85

Following part
Compound,Ba CapD inh,AID504770
CC1=C(C(=O)N(C)CCC#N)C2(CCCCC2)OC1=O,0.03,1.35
Cn1c(O)c(C(=O)c2ccccc2)c(=O)n(C)c1=O,-0.42,-0.1
CCC(C)(C)c1ccc(S(=O)(=O)N2CCN(Cc3ccnc4ccccc34)CC2)cc1,0.325,.
COC(=O)CCC(=O)N1CCc2ccccc21,0.385&-0.075,0.6&-0.4
COc1cccc(NC(=O)c2ccc3c(c2)N(C)CCS3)c1,62,-0.2
CCn1c(SCc2ccc(C)cc2)nnc1-c1ccc(S(=O)(=O)N2CCOCC2)cc1,.,-1.25
COc1ccccc1N(CC(=O)N(C)Cc1ccccc1)S(C)(=O)=O,-0.525,-0.05
COc1cc(OC)c(C2C(C#N)=C(N)Oc3n[nH]c(-c4cccs4)c32)cc1OC (stereo not given),0.31,.
COCCn1c(C)cc(C=C2C(=O)N(C)C(=S)N(C)C2=O)c1C,21.1,-0.35
Nn1c(COc2ccc(Cl)cc2)nc2ccccc2c1=O,1.47,-0.45
Cc1cc(NC(=O)/C(C#N)=C/N(C)C)no1,-0.43,.
O=C(COc1ccc(Cl)cc1Cl)Nn1c(O)c(C2=c3ccccc3=NC2=O)sc1=S,-0.935,.

Going on with the list:
Compound,Ba CapD inh,AID504770
O=C(COC(=O)c1ccccc1SCC(=O)N1CCCC1)Nc1ccc2c(c1)OCO2,.,-0.05
Cc1ccc(C2CC(C(F)(F)F)n3ncc(C(=O)Nc4sc5c(c4C#N)CCC(C(C)(C)C)C5)c3N2)cc1 (stereo not given),0.545,.
O=C(/C=C/c1cccc(C(F)(F)F)c1)NCc1ccco1,.,-0.3
CC(C)C(=O)OCC(=O)Nc1cccc(Cl)c1,.,-1.25
Cc1c(NC(=O)c2ccc3c(c2)C(=O)N(C)C3=O)cccc1C(=O)O,0.065,-0.05
O=C(NC1CC2CCCC(C1)N2C(=O)Nc1ccccc1)C1CC1 (stereo not given),.,-1.2
COC(=O)C1=C(C)NC(C)=C(C(=O)OC)C1C(=O)OCc1nc2cc(C(=O)OC)ccc2c(=O)[nH]1,.,-0.55
CS(=O)(=O)c1ccc(COc2ccccc2C(=O)N2CCN(C=O)CC2)cc1,-0.365,.
O=C(CSC(=S)N1CCOCC1)Nc1nc(-c2c[nH]c3ccccc23)cs1,-0.155,-0.7
O=C(c1ccc2c(Cl)c3c(nc2c1)CCC3)N1CCC2(CC1)OCCO2,-0.31,-0.3
COc1ccccc1CNC(=O)c1sc2ncnc(N3CCN(c4ccccc4F)CC3)c2c1C,-0.05,1.1
COc1cccc2sc(NC(=O)C3COc4ccccc4O3)nc12 (stereo not given),0.155,-0.1

Next results:
Compound,Ba CapD inh,AID504770
COC(=O)c1ccc2c(c1)C(=O)/C(=C/c1ccccc1F)O2,0.795,-0.05
O=c1cc(CNC2CCCCC2)c2ccccc2[nH]1,.,0.4
CCN1C(=O)/C(=C/c2ccccc2)SC1=Nc1cccc(C(=O)O)c1,-3.35,0.6
CSc1nc2ccccc2n1CC(=O)NC1CCCc2ccccc21 (stereo not given),.,1.75
Cc1ccc(NC(=O)c2c(NC(=O)c3ccccc3Cl)sc3c2CCCCC3)c(C)c1,-0.21,.
COC(=O)C1=C(C)NC(=O)NC1c1ccc(C(C)C)cc1 (stereo not given),-0.085,-0.75
COc1cc(/C=C2\C(=O)NC(=O)N(c3cc(C)cc(C)c3)C2=O)cc([N+](=O)[O-])c1O,-2.15,.
CCOC(=O)C1CCN(c2nnc(N3C(=O)c4ccccc4C3=O)s2)CC1,-0.84,-0.5
Cc1cc(C)c2cccc(NC(=S)NC(=O)/C=C/c3ccccc3)c2n1,-1,-0.25
COc1ccc(C)cc1NC(=S)NCc1cnn(C)c1,-0.25,-0.2
CCOC(=O)c1sc(NC(=O)C(CC)Sc2nnc3c4ccccc4n(C)c3n2)nc1C (stereo not given),-0.06,.
CC(=O)N1CCc2cc(N(C(=O)Nc3ccc(F)cc3F)C3CCN(Cc4ccccc4)CC3)ccc21,0.05,.

Next section.
Compound,Ba CapD inh,AID504770
CC(C(=O)N1CCCc2ccccc21)n1nc(-c2cccs2)oc1=O (stereo not given),.,0.6
CCOC(=O)c1c(CN2CCN(c3ccccc3C)CC2)n(C2CCCCC2)c2cc(Br)c(O)cc12,-0.155,.
C/C(CCc1oc2c(Br)cc(C)cc2c1-c1ccc(C)o1)=N\NC(N)=S,-0.535,-0.25
O=c1[nH]c2ccccc2n1Cc1ccccc1,.,0.15
Cc1ccccc1NC(=O)/C=C/c1ccc(OCc2c(F)cccc2Cl)cc1,-0.23,.
O=C(CS(=O)(=O)c1ccccc1)Nc1nccs1,.,-1.4
O=C(Cc1c(Sc2ccccc2)c2ccccc2n1Cc1ccccc1)Nc1ccccc1,0.01,.
NCC(=O)c1cccc([N+](=O)[O-])c1,-1.03,.
CCOC(=O)c1cnn(-c2ncc(C(=O)OC)c(C(F)(F)F)n2)c1C(F)(F)F,0.335,-0.7
COc1ccc2c(c1)C(=NNC(N)=S)c1cc(OC)ccc1-2,0.7,.
CC(C)P(=O)(c1cccc(C(=O)O)c1)C(C)C,.,0.55
COc1ccc(C2=NOC(C(=O)N(C)c3ccccc3)C2)cc1 (stereo not given),-0.275,-0.55

(list continues)
Compound,Ba CapD inh,AID504770
CSc1ccc(/C=C2\CC/C(=C\C(C)C)C2=O)cc1,-0.125,-0.25
S=c1nc[nH]c2nc[nH]c12,-0.355,-0.15
COc1ccc(S(=O)(=O)N(C)C2CCN(Cc3cc4c(cc3Cl)OCO4)C2)cc1 (stereo not given),-0.865,.
CC(C)[C@H](N)c1nnc(SCc2cccc(F)c2)o1,.,0.05
Cc1onc(-c2c(Cl)cccc2Cl)c1C(=O)NNC(=O)Cc1nc(-c2ccccc2)sc1C,-0.9,.
O=C(CSc1nccc(=O)[nH]1)N1CCOCC1,-0.28,1.1
Cc1nn2c(N)c(C#N)cnc2c1C(N)=O,50.3,0.2
Cc1cccc(OCc2nc(-c3ccc(OCC(N)=O)cc3)no2)c1,0.49,-0.5
Cc1ccc(-c2[nH]nc3c2C(c2ccc(OC(=O)c4ccco4)cc2)C(C#N)=C(N)O3)cc1 (stereo not given),-0.025,.
Cc1cc(NCCc2ccccc2)c2nncn2n1,0.655,-0.35
O=c1c(Cl)c(NCC2CCCO2)cnn1Cc1ccccc1 (stereo not given),0.25,-0.25
CNC(=O)c1cc(-c2ccc(F)cc2)[nH]c1C,1.85,0.25
O=C(O)c1ccc2nonc2c1,-0.45,.
O=[N+]([O-])/C(C(Cl)=C(Cl)Cl)=C(\Nc1ccc(Br)cc1)Sc1ccccc1,0.03,.
